# KCNQ2 block: KCNQ2 channel blockers in CHO-K1 cells – cell-based, FluxOR thallium flux, B-score, primary screen (AID 2156); O88943; 20 min; active compounds read low; only compounds with negative scores are shown here; some inactives read as strong as hits; actives 1.1% (n = 310,000); B-score at 10 µM;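 active = fluorescence ratio B-score at most minus 3 library SDs, with starting brightness B-score within 2 library SDs, cut at about -5.5 in these data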
# Target sequence (O88943 whole entry, looked up): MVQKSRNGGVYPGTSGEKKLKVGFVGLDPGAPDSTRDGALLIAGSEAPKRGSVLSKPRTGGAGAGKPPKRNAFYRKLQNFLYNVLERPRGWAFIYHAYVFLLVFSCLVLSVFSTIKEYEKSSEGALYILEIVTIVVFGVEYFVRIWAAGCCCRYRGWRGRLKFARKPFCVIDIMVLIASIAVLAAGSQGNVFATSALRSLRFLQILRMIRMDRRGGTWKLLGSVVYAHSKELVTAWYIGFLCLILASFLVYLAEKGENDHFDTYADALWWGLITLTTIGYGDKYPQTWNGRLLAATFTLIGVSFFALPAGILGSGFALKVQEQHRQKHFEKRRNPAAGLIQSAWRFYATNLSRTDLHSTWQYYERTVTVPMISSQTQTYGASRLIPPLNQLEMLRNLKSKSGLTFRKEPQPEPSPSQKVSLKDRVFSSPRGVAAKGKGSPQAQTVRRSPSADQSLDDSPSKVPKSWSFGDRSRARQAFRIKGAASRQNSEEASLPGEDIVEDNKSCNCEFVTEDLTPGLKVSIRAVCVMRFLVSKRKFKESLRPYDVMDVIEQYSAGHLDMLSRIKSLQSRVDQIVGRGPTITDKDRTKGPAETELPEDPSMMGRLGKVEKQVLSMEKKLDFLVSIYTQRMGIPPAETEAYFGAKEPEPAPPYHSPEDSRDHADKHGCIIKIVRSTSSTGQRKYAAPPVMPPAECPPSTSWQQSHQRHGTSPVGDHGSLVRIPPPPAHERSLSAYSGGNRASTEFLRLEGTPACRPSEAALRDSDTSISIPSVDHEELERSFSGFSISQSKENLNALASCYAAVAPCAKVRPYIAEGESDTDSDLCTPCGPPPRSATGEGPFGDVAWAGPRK
# KCNQ2 block baseline: further read-out of KCNQ2 block, marked with its call; B-score; measured here: initial fluorescence intensity artifact check;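 brightness before thallium and not channel activity; 0 = typical well and far values either way flag optical interference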
# Starred values were filed as active, the others as inactive; i = inactive.
SMILES,KCNQ2 block,KCNQ2 block baseline
CCN(CC)S(=O)(=O)c1ccc(N2CCCCC2)c(NC(=O)C2=COCCO2)c1,i,0.17
COc1cccc(OC)c1OC(=O)/C=C/c1ccc(C)o1,i,-1.2
N#Cc1ccccc1OCC(=O)N1CCN(C(=O)c2ccco2)CC1,i,-1.5
COc1ccc(CC(=O)Nc2ccccc2C(=O)N2CCCC2)cc1,i,-0.03
O=C(/C=C/c1ccc(OCCCF)cc1)NCc1ccc(Cl)cc1,i,0.81
O=C(O)CSc1nnc2n(-c3ccccc3)c(=O)c3ccccc3n12,i,0.39
CN(C)c1cccc(C(=O)NCc2ccccc2Cl)c1,i,-0.43
O=C(Oc1cccc2c(O)cccc12)c1ccccc1,i,-1.6
COc1ccc(Cl)cc1NC(=O)CN(C)CC(=O)Nc1ccccc1-c1ccccc1,i,0.62
Cc1cnccc1CN(C)Cc1cn(C)nc1-c1cccc(Cl)c1,i,-1.1
O=S(=O)(Nc1ccc(S(=O)(=O)Nc2nccs2)cc1)c1ccc(Br)cc1,i,0.42
COC(=O)/C(=C/Nc1ccccc1)[N+](=O)[O-],i,-1.4
CCCCCCOC(=O)C[N+](C)(C)CCOC1CC2CCC1(C)C2(C)C (stereo not given),i,1.9
CCN(CC(=O)NCc1ccc(Cl)cc1)C(=O)c1ccc(S(=O)(=O)NCc2ccco2)cc1,i,0.37
COc1cc(/C=N/NC(=O)c2ccc(Cl)c(S(N)(=O)=O)c2)ccc1OCC(N)=O,i,-1
C=CCOc1ccccc1CN1CCC(Oc2cc(C(=O)NC3CC3)ccc2OC)CC1,i,-0.16
CCc1ccc(NC(=O)CCn2c(=O)c3cccn3c3ccccc32)cc1,i,0.11
Cc1ccc(S(=O)(=O)NCCn2cnc([N+](=O)[O-])n2)cc1,i,-1.3
CCCCn1c(N)c(N(CC(C)C)C(=O)C2CC(=O)N(c3ccc(C)cc3)C2)c(=O)[nH]c1=O (stereo not given),i,-0.94
COc1ccc(N(CC(=O)N/N=C/c2ccccc2F)S(=O)(=O)c2ccccc2)cc1,i,0.64
Nc1c(Cl)cc(Cl)cc1C(=O)OCC(=O)N1CCCC1,i,1.6
CCCNC(=O)Cn1cnc2sc(C(=O)NCCN(CC)CC)c(C)c2c1=O,i,1
CCOc1ccc(NC(=O)CN(C)C(=O)c2cc(-c3ccc(OC)cc3)nc3ccccc23)cc1OCC,i,-1.2
COc1ccc(OCC(=O)Nc2ccc3oc(-c4ccncc4)nc3c2)cc1,i,0.03
Brc1ccc(C2=CSC3=NCCN23)cc1,i,0.05
O=C(c1cccs1)N(Cc1ccc(F)cc1)C1CCS(=O)(=O)C1 (stereo not given),i,-0.65
O=C(NCC(c1ccco1)N1CCN(c2ccc(F)cc2)CC1)C(=O)NC1CC1 (stereo not given),i,-1.9
CCOC(=O)c1sc(NC(=O)CSc2nc3ccccc3o2)c(C(=O)OCC)c1C,i,2
COC(=O)Cn1c(=O)c2c(nc3n2CC(C)CN3Cc2ccccc2)n(C)c1=O (stereo not given),i,-2.4
COc1cc(OC)c2c(c1)O/C(=C\c1ccccc1)C2=O,i,-0.28
O=C(Nc1ccccc1C(F)(F)F)c1cccnc1,i,-2
Cc1sc2nc(COC(=O)CNC(=O)c3ccc(C(C)(C)C)cc3)[nH]c(=O)c2c1C,i,0.01
COc1ccccc1CCNS(=O)(=O)c1cn(C)c(=O)n(C)c1=O,i,-0.02
CCCCn1c(=O)c(CCC(=O)OC(C)C(=O)Nc2cccc(Cl)c2Cl)nc2ccccc21 (stereo not given),i,0.03
Clc1ccc(OCCN2CCN(c3ncnc4sccc34)CC2)cc1,-6*,-0.07*
c1ccc(C2(Cn3ccc4ccccc43)OCCO2)cc1,i,1.5
O=C(NC1CCCCC1)C1CN(S(=O)(=O)c2ccccc2)CCN1S(=O)(=O)c1ccccc1 (stereo not given),i,-0.05
O=c1cc(NS(=O)(=O)c2ccccc2)nc(SCc2ccccc2Cl)[nH]1,i,-0.14
CN(CCC1CCOCC1)C(=O)CC1C(=O)NCCN1Cc1ccoc1 (stereo not given),i,0.7
Cc1ccc(-c2cc(C(=O)NCCCn3ccnc3)no2)cc1,i,1.4

# 2 of the compounds above, with values under each structure.
# Below each SMILES – KCNQ2 block | KCNQ2 block baseline
- COc1cc(OC)c2c(c1)O/C(=C\c1ccccc1)C2=O
 : i | -0.28
- O=C(Nc1ccccc1C(F)(F)F)c1cccnc1
 : i | -2

# Taken from the results shown for reference:
SMILES,KCNQ2 block,KCNQ2 block baseline
c1ccc(C2(Cn3ccc4ccccc43)OCCO2)cc1,i,1.5
O=C(NC1CCCCC1)C1CN(S(=O)(=O)c2ccccc2)CCN1S(=O)(=O)c1ccccc1 (stereo not given),i,-0.05
O=c1cc(NS(=O)(=O)c2ccccc2)nc(SCc2ccccc2Cl)[nH]1,i,-0.14
CN(CCC1CCOCC1)C(=O)CC1C(=O)NCCN1Cc1ccoc1 (stereo not given),i,0.7
Cc1ccc(-c2cc(C(=O)NCCCn3ccnc3)no2)cc1,i,1.4

# Continued.
SMILES,KCNQ2 block,KCNQ2 block baseline
COc1ccc(NC(=O)COc2coc(CN3CCN(c4ccccc4)CC3)cc2=O)cc1,i,-1.8
Cc1cc(=O)[nH]c(SCC(=O)Nc2ccc(C(=O)O)cc2)n1,i,-0.37
O=C1C(c2ccc(F)cc2)N(C2CCCCC2)C(=O)CN1C1CCCC1 (stereo not given),i,-0.27
CC(C)C[C@H](NC(=O)NCc1ccc(Cl)cc1)C(=O)O,i,0.43
CCOC(=O)c1ccc(NS(=O)(=O)c2cc3c4c(c2)CCN4C(=O)CC3)cc1,i,-0.51
CCN(Cc1ccccc1)S(=O)(=O)c1cn(C)cn1,i,-0.52
COC(=O)COc1ccccc1C(=O)Nc1ccc(OC)cc1,i,-0.01
CO/N=C/c1cc([N+](=O)[O-])ccc1Sc1ccc(C)cc1,-7.4*,0.49*
CCOC(=O)/C(=C\c1ccc(Cl)cc1)c1nc2sc(C)c(C)c2c(=O)[nH]1,-6.9*,1.7*
Cc1ccc(C(=O)N/N=C(\CC(C)C)c2ccccc2)cc1,i,-0.87
COc1ccc(-n2cc(C#N)c(=O)n(Cc3ccc(F)cc3)c2=O)cc1,i,0.09
CCC(CC)NC(=O)c1ccc(Cl)cc1,i,-0.12
CCOC(=O)C1CCCN(CC(=O)Nc2c(C(=O)OC)[nH]c3ccc(Br)cc23)C1 (stereo not given),i,-0.79
CCc1ccccc1NC(=O)CN(C)C(=O)CSc1nn(-c2ccc(F)cc2)c(=S)s1,i,0.87
NNC(=O)COc1ccc2oc3c(c2c1)CCCC3,i,0.08
Cc1ccccc1NC(=O)c1cccc(N2C(=O)C3CCCCC3C2=O)c1 (stereo not given),i,-0.33
COCCNc1ccc([N+](=O)[O-])cc1C(=O)NC1CCCc2ccccc21 (stereo not given),i,0.16
CC(C)c1ccc(OCC(=O)NNC(=S)NC(=O)c2cccs2)c(Br)c1,i,-0.57
O=S(=O)(NCC(c1cccnc1)N1CCN(Cc2ccccc2)CC1)c1ccccc1 (stereo not given),i,-0.63
C(=N\c1c(-c2ccccc2)nc2n1CCS2)/c1ccccc1,i,-0.53
CCN(CC(=O)Nc1c(C(=O)OC)[nH]c2ccccc12)c1ccc2c(c1)OCO2,i,-1.6
CCC1CCCCN1CCCNC(=O)c1ccc(/C=C2/Sc3ccccc3NC2=O)cc1 (stereo not given),i,-0.12
Cc1cc(-c2ccccc2)nc(N(C)NC(=O)c2ccc(Cl)cc2)c1S(C)(=O)=O,i,-1
COc1ccc(-n2cc([N+](=O)[O-])c(=O)c3ccc(Cl)cc32)cc1,i,-1.1
O=C(Cn1c(=O)n2ncnc2c2c3c(sc21)CCCC3)c1ccccc1,i,-2.2
CCC(CC)C(=O)Nc1cccc(C(=O)Nc2nccs2)c1,i,0.19
CN(C)CCCN(C(=O)c1sc2ccccc2c1Cl)c1nc2c(F)cccc2s1,i,0.36
COc1ccc(OCC(=O)N2CCN(c3cccc(Cl)c3)CC2)cc1,i,-1.2
CCCCC(CC)CNC(=O)c1cc2ccccc2c(=O)o1 (stereo not given),i,1.1
NC(=O)c1cc(-c2csc(-c3cccnc3)n2)ccc1O,i,-1.9
Cc1ccc(S(=O)(=O)c2ccc(Cl)cc2)cc1S(=O)(=O)NC(C(=O)O)C(C)C (stereo not given),i,0.29
COc1ccccc1-c1c(C#N)c(N)nc2c1CCc1ccccc1-2,i,-0.98
Cc1ccn2c(Nc3ccccc3C)c(-c3ccncc3)nc2c1,i,1.9
COc1cc2c(cc1OC)C(c1ccccc1)NC(C)(C)C2 (stereo not given),i,-0.03
O=C(c1sc2ccccc2c1Cl)N1CCN(c2ccccn2)CC1,i,0.98
CN(C)c1ccc(NS(=O)(=O)c2cccc(Cl)c2)cc1,i,2.3
Cc1ccsc1/C=N/N=C1\C(=O)Nc2ccccc21,i,0.53
Cc1nnc2ccc(-c3cccc(NS(C)(=O)=O)c3)nn12,i,-0.69
C/C(=N\NC(=O)CCCC(=O)O)c1c(-c2ccccc2)c2cc(Cl)ccc2[nH]c1=O,i,1.4
c1ccc2c(c1)nc(N1CCOCC1)c1nncn12,i,-0.39

# Full records from above. Values in the order: KCNQ2 block, KCNQ2 block baseline
# Profile of CCN(CC(=O)NCc1ccc(Cl)cc1)C(=O)c1ccc(S(=O)(=O)NCc2ccco2)cc1 = i, 0.37
# Profile of COc1ccc(-n2cc(C#N)c(=O)n(Cc3ccc(F)cc3)c2=O)cc1 = i, 0.09
# Profile of O=C(Nc1ccccc1C(F)(F)F)c1cccnc1 = i, -2
# Profile of C(=N\c1c(-c2ccccc2)nc2n1CCS2)/c1ccccc1 = i, -0.53
# Profile of CCOC(=O)/C(=C\c1ccc(Cl)cc1)c1nc2sc(C)c(C)c2c(=O)[nH]1 = -6.9*, 1.7*

# Following part
SMILES,KCNQ2 block,KCNQ2 block baseline
Cc1cc(-c2nnc(-c3cc4ccccc4oc3=O)o2)c(C)n1-c1ccccc1,i,-0.13
COc1ccc(-n2c(=O)[nH]cc(C(=O)Nc3ccc4c(c3)OCCO4)c2=O)cc1,i,-0.71
CCc1nc2ccccc2[nH]1,i,0.2
COC(=O)C1CCN(c2cc(=O)n(C3CCCCC3)c(=O)[nH]2)CC1,i,-0.66
O=S(=O)(c1cccs1)N1CCC2(CC1)OCCO2,i,-0.08
COc1ccc(C(=O)NC(C(=O)NCC2CCCO2)C(C)C)cc1 (stereo not given),i,-0.68
C=C(C)C(=O)NNc1ccccc1,i,0.16
Cc1cc(C)c2cc(CN(CCO)C(=O)NC3CCCCC3)c(=O)[nH]c2c1,i,1.1
COc1ccccc1N1CCN(C(=O)c2c(-c3ccccc3Cl)noc2C)CC1,i,-0.39
Cc1ccc2[nH]c(=O)c(CNS(=O)(=O)c3ccccc3)c(-c3ccccc3)c2c1,i,-0.03
CCOC(=O)C1(Cc2cccc(F)c2)CCN(CC2CC2)CC1,i,0.14
CCN(CC)c1ccc(S(=O)(=O)N2CCOCC2)cc1NC(=O)CN1CCc2ccccc2C1,i,-0.08
CCCN(CCC)C(=O)CSc1nc2ccccc2c(=O)n1CC1COc2ccccc2O1 (stereo not given),i,-0.99
COc1ccc(OC)c(C(=O)c2ccc(C(=O)c3cc(OC)ccc3OC)cc2)c1,i,-0.05
CCCOc1ccc(N2C(=O)CC(N(CCc3ccc(OC)cc3)C(=O)c3ccccc3)C2=O)cc1 (stereo not given),i,3.7
CCOC(=O)c1cnc2cc(-c3ccc(C(C)(C)C)cc3)nn2c1N,i,-1.3
CCOC(=O)Cc1csc(NC(=O)CSc2nccn2C)n1,i,0.03
O=C(CC1C(=O)NCCN1Cc1ccc(F)cc1)NCCCn1cccn1 (stereo not given),i,1.8
O=C(CCc1nnc2ccc(NCc3ccco3)nn12)N1CCN(c2ccc(F)cc2)CC1,i,0.05
O=C1CCN(C(=O)c2ccccc2)C2CCCCC12 (stereo not given),i,3.3
Cc1ccc(OCC(=O)NCC2CCCO2)c(C)c1 (stereo not given),i,-0.71
Cc1ccc(Cn2ncc3c(NCCN(C)C)ncnc32)cc1,i,-0.58
Nc1cccc(-c2nc3ccccc3s2)c1,i,1.6
COc1ccc(C2/C=C\CNCC(=O)N2Cc2ccc(F)cc2)cc1 (stereo not given),i,-0.22
CCC1(CC)C(=O)C2=C3C1[C@H](C(=O)OC)C=C(C(=O)OC)C[C@H]3n1c(=O)n(-c3ccccc3)c(=O)n1[C@H]2C (stereo not given in full),i,-2.2
COc1ccccc1CCNC(=O)C1CCN(c2nnc(C)c3c(C)n(-c4ccc(C)cc4)nc23)CC1,i,-2.5
CN1C(=O)c2ccccc2C(C(=O)NCC2CCCO2)C1c1c[nH]c2ccccc12 (stereo not given),i,0.73
O=C(Nc1ccccc1N1CCCCC1)c1ncoc1-c1cccc(F)c1,-5.8*,-1.1*
CC(=O)N(Cc1ccc(F)cc1)c1cccc(C)c1C,i,-0.56
C/C(=N/NS(=O)(=O)c1cccc([N+](=O)[O-])c1)c1c[nH]c2ccccc12,i,-0.03
O=S(=O)(c1ccccc1)[C@@]1(c2ccc(Br)cc2)C[C@@H]2ON=C(c3ccccc3)[C@@H]2C1,i,-1.8
CC(C)n1cc(CN2CCN(CCc3ccccc3)C(CCO)C2)cn1 (stereo not given),i,1.1
CCOc1ccc(S(=O)(=O)Nc2ccc(C(=O)NCC(C)(C)N3CCOCC3)cc2)cc1,i,0.39
COc1ccc(N2CCN(CNC(=O)c3ccccc3)CC2)cc1,i,-0.45
Cc1cc2c(cc1C)NC(CC(=O)NCc1ccccc1)C(=O)N2 (stereo not given),i,0.05
Cc1cccc(CNC(=O)CC2C(=O)NCCN2C2CCCC2)c1 (stereo not given),i,-1.8
O=C(O)/C=C/c1cnc2ccccc2n1,i,-2.4
O=C(NCC(=O)N(c1ccc(F)cc1)C(C(=O)NC1CCCC1)c1ccncc1)c1ccco1 (stereo not given),i,-0.21

# Assay outcomes (PubChem)

# Not all compounds are listed, so the mix of outcomes need not match the whole.
